# Compound activity (PubChem)
# UCH37 DUB inh – inhibitors of human UCH37 deubiquitinase, primary screen, biochemical, Ub-AMC cleavage, fluorescence. Ubiquitin carboxyl-terminal hydrolase isozyme L5 (Homo sapiens), Q9Y5K5. inhibition, % (concentration not given with the values). purified proteasome/UCH37. 330,000 tested, 0.33% active;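 active means mean of two replicates above 20%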;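 further: 0% = compound-free wells with enzyme and 100% = wells lacking proteasome; stock transfer was 100 nL into about 20 µL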
# Target sequence (Q9Y5K5 whole entry, looked up): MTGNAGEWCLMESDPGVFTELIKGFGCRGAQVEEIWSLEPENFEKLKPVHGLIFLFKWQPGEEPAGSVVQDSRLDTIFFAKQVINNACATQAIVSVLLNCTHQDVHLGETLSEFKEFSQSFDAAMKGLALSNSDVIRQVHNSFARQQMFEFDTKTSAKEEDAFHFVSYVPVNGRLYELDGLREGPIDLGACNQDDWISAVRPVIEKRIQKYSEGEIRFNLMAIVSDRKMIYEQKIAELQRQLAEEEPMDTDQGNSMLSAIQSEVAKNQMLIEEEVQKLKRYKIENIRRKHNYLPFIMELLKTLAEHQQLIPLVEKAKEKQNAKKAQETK
#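 Signal – fluorescence, ex 355 nm, em 460 nm · System – Proteasome-bound UCH37 · Input – 0.15 nM proteasome as dispensed · Timing – 30 min preincubation with enzyme, 25 min cleavage at room temperature · Read-out basis – percent inhibition of cleavage signal versus uninhibited and no-proteasome wells · Medium – Tris-HCl pH 7.4 with ATP-MgCl2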
# HNF4A DNA FP – change in binding of human HNF4A to DNA, primary screen, biochemical, fluorescence polarization, FITC-DNA; Hepatocyte nuclear factor 4-alpha (Homo sapiens), P41235; 360,000 tested, 0.3% active; activity change, % at 10 µM; 1 h; in the data active means activity change above about 30%, passing the limit was not always enough;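 further: controls were the assay level and a saturating level of protein; the project sought stronger binding though the title names inhibitors; some compounds called inactive have numbers as strong as hits; positive values seem to mean higher polarization but the record does not say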
# Target sequence (P41235 whole entry, looked up): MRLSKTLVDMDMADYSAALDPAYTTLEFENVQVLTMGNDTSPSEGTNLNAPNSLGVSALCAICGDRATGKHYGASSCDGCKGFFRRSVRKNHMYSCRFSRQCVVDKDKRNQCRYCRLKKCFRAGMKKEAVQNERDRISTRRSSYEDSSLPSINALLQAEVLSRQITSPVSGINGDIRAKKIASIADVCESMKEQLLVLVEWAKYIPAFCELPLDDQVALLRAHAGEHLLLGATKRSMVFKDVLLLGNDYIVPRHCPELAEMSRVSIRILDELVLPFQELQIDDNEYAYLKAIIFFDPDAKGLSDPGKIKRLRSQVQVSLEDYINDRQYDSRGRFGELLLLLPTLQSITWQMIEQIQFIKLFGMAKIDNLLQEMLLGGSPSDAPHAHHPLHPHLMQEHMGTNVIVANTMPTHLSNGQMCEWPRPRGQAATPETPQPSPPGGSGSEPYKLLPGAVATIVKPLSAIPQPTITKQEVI
# Vif A3G – inhibitors of Vif binding to APOBEC3G peptide, primary screen, biochemical, TR-FRET, GST-Vif 1-94, biotin-A3G peptide, dose response retest (AID 1117319) | 260,000 tested, 0.57% active | Virion infectivity factor (Human immunodeficiency virus type 1 group M subtype B (isolate … | one-dose inhibition, %; IC50 in µM for titrated hits | TR-FRET GST-Vif / biotin-A3G peptide binding; higher % means a stronger effect; test concentration not given here; strong numbers were not always called active;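 active means above the screen mean plus three standard deviations and confirmed in dose response; inconclusive means results disagree or hit not tested in dose response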;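 further: Vif residues 1-94 fused to GST binding biotinylated APOBEC3G peptide 110-148; 0% = full assay without inhibitor and 100% = GST in place of GST-Vif; retest series ran down from 100 µM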
# AF4-AF9 inh – inhibitors of AF4 peptide binding to AF9, primary screen, biochemical, AlphaScreen, biotin-AF4 peptide, FLAG-AF9, single point. 350,000 tested, 0.47% active. inhibition, % at 10 µM. AID 651704, 2012;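 active means every replicate reaching a set inhibition limit, whatever the replicate mean, cut at about 25% in these data; inconclusive means mean inhibition reaches that limit but some replicates miss it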;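 further: 0% = plate neutral control median and 100% = total signal loss; the record names both 10 and 1 µM as test concentration; the first replicate is given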
# E coli growth – E. coli growth inhibition, primary screen, OD600 | Escherichia coli growth, 23 h; active compounds read low | OD600 absorbance (no concentration beside the values) | 330,000 tested, 0.21% active | AID 1053175, 2014;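 active means OD600 absorbance below the run mean of sample wells minus 3.6 SD, in any replicate, cut at about 0.56 in these data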;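 further: stock transfer was 300 nL into about 60 µL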
# FGF22 binding – binders of human FGF22 protein, primary screen, FGF22 synaptogenesis inhibitor project, biophysical, thermal shift, single point; Fibroblast growth factor 22 (Homo sapiens), Q9HCT0; recombinant FGF22 thermal shift, SYPRO orange fluorescence; percent of sucrose octasulfate shift, DMSO zero; calls only at 9.99 µM; 340,000 tested, 1.5% active; AID 651658, 2012;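 active means melting point raised past a set limit in the mean and every replicate; inconclusive means no clear call; three in four hits are not shown here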
# Target sequence (Q9HCT0 whole entry, looked up): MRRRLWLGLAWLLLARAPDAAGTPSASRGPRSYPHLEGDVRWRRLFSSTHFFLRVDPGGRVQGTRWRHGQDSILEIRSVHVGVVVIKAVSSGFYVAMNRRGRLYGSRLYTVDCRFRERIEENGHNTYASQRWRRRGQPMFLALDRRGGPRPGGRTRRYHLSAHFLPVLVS
# RanGTP-Imp inh – inhibitors of RanGTP-importin-beta interaction, primary screen, biochemical, FRET, CFP-Ran, YFP-importin-beta, homogeneous | Ran GTPase (GTP-bound) - importin-beta complex | cell-free CFP-Ran/YFP-importin-beta FRET ratio | inhibition, % (no concentration beside the values) | 300,000 tested, 1.1% active;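 active means most replicates above 15%; inconclusive means exactly half above 15%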;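 further: 0% = DMSO wells and 100% = Ran loaded with GDP instead of GTP; wells of about 40 µL received 100 nL stock; the first replicate is given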
# * hit, by the source's call; i = inactive; ? = inconclusive; . = not tested or not shown; & = joins results of further samples. Some of the compounds tested (hit frequency here may not be typical).
SMILES,UCH37 DUB inh,HNF4A DNA FP,Vif A3G,AF4-AF9 inh,E coli growth,FGF22 binding,RanGTP-Imp inh
Cc1ccc2nc3c(cc(C(=O)NCC4CCCO4)n3C)c(=O)n2c1 (stereo unspecified),i,.,12%,.,0.71,.,.
Cc1ccc2c(c1)CCCN2C(=O)c1c(C)noc1C,0.2,-1.4,-3%,.,0.69,.,-0.5
Cn1c(N)c(S(=O)(=O)N2CCN(C(=O)c3ccco3)CC2)c(=O)n(C)c1=O,-0.1,-1.5,8%,-9.1,0.73,i,-0.8
CC(=O)OCC(=O)[C@@]1(OC(C)=O)[C@@H](C)C[C@H]2[C@@H]3C[C@H](F)C4=CC(=O)C=C[C@]4(C)[C@@]3(F)[C@@H](O)C[C@@]21C,-0.5,2.9,?,-1.2,.,i,-12
O=C(Nc1ccc(S(=O)(=O)Nc2cnc3ccccc3n2)cc1)c1ccc([N+](=O)[O-])cc1Cl,2.5,-1.5,.,2.2,0.7,i,-2.1
CC(=O)C[C@H](O)CC(=O)[C@H]1OC(=O)CCCCCCCCc2ccccc21,-0.6,-1.6,.,0.3,.,i,.
COc1ccccc1/C=C\C(=O)NCC(=O)N/N=C/c1ccc(O)cc1O,.,24,1%,3.0,.,i,-0.3
CCCC(=O)NC1=C(C#N)C2(CCCC2)Cc2ccccc21,-0.3,-0.8,-9%,.,0.64,.,0.9
Cc1ccc([C@@H]2[C@@H]3C(=O)N(c4ccccc4)C(=O)[C@@H]3[C@]3(C)C(=O)N(Cc4ccccc4)CC(=O)N23)o1,1.6,4.7,.,4.0,.,i,-0.4
O=C(O)c1cc(S(=O)(=O)Nc2ccc3c(c2)OCCO3)c(Cl)cc1Cl,1.2,2.9,?,-1.6,0.78,.,2.6
O=C(Nc1ccc(S(=O)(=O)Nc2ncccn2)cc1)C(F)(F)F,3.0,-5.2,-3%,1.4,0.72,i,-1.0
O=S(=O)(NCCCCCCNS(=O)(=O)c1c(F)cccc1F)c1ccc2c(c1)OCCO2,3.3,1.1,.,-0.3,0.67,i,.
Nc1cccc2c1C(=O)N(C(=O)c1cccc(S(=O)(=O)N3CCCC3)c1)C2=O,-78,-9.6,-3%,.,0.75,.,9.3
O=S(=O)(c1ccc2ccccc2c1)n1cccn1,-1.6,-0.6,1%,-3.3,0.67,i,-0.7
CCC1C(=O)N=C(SCC(=O)Nc2ccc(S(N)(=O)=O)cc2)NC1=O (stereo unspecified),5.0,0.1,.,-1.8,0.68,i,2.7
Cc1cc(C(=O)Nc2c(F)cc(F)cc2Br)n(-c2ccccc2)n1,5.5,2.5,0%,-20,0.68,i,2.8
CCN(CC(=O)Nc1ccc(OC)cc1)C(=O)c1cc(S(=O)(=O)N2CCOCC2)ccc1N1CCCC1,1.5,2.6,4%,-0.3,0.66,i,0.7
Cc1ccc(S(=O)(=O)N2CC=C(C(=O)NCCC(C)C)CC2)cc1,3.8,-0.9,8%,7.0,0.7,i,11
COc1ccccc1CC(=O)NN1C(=O)NC2(CCC(C)CC2)C1=O (stereo unspecified),-0.8,-6.0,-1%,-0.3,0.7,i,.
Cc1nc2ccccc2c2oc(C(=O)NCc3ccccn3)cc12,0.4,-0.7,0%,-0.3,0.72,i,3.0
CCOC(=O)CN(C(=O)CNC(=O)c1ccco1)C(C(=O)NC1CCCC1)c1ccccc1OCC (stereo unspecified),1.5,-1.7,-1%,.,0.75,.,5.3
Nc1ncnc2c1ncn2[C@@H]1O[C@H](CNC(=O)[C@H]2CCC(=O)N2)[C@@H](O)[C@H]1O,2.7,0.3,.,-0.7,0.65,i,.
C=C1SC(=Nc2c(C)cc(C)cc2C)N(C(=O)c2sc3ccccc3c2Cl)C12CCCCC2,2.0,-1.8,-16%,-0.5,0.7,i,3.1
C/C(=N/NS(=O)(=O)c1ccc(C)c(C)c1)c1ccncc1,.,4.8,2%,-1.1,.,i,2.4
COC(=O)c1ccc(C(=O)NC2CCCc3c2cnn3-c2cc(F)cc(F)c2)nc1 (stereo unspecified),1.9,5.4,-8%,0.0,0.71,i,1.2
SMILES,UCH37 DUB inh,HNF4A DNA FP,Vif A3G,AF4-AF9 inh,E coli growth,FGF22 binding,RanGTP-Imp inh
CCCc1nnc(NC(=O)CC(C)c2ccccc2)s1 (stereo unspecified),5.4,-0.9,-5%,-2.8,0.65,i,1.5
CC1CCCCN1C(=S)NCCc1ccccc1 (stereo unspecified),2.8,0.1,-2%,.,0.75,.,6.2
COCCCN1C(=O)C(=O)/C(=C(/O)c2ccc(OC)cc2C)C1c1cccnc1 (stereo unspecified),11,1.5,2%,.,0.7,.,-0.4
O=C(CCSCCC(=O)NCc1ccc(F)cc1)NCc1ccc(F)cc1,2.3,2.6,10%,.,0.67,.,1.9
COc1cc([N+](=O)[O-])ccc1NC(=O)CCCOc1cccc(C)c1C,1.9,-0.1,6%,.,0.66,.,1.0
COc1ccc(C)cc1S(=O)(=O)N(C)CC(=O)Nc1ccc2c(c1)OCO2,2.1,1.9,0%,8.2,0.67,i,3.8
Cc1ccc(NC(=O)C2CCCN2S(=O)(=O)c2ccc(F)cc2)c(C)c1 (stereo unspecified),-0.4,1.8,0%,.,0.7,.,0.3
CC1(C)NC(=O)N(CCCCOc2ccc3c(c2)CCC3)C1=O,1.8,0.9,6%,.,0.68,.,-1.2
O=C(c1ccc(-c2ccccc2)cc1)C1CCCN(C(=O)c2ccncc2)C1 (stereo unspecified),4.8,5.0,.,-1.8,0.68,i,-0.3
CCOc1ccc(NS(=O)(=O)c2coc(C(N)=O)c2)cc1,1.0,-3.5,-2%,-0.7,0.67,i,?
CCOC(=O)c1cn(Cc2ccc(C)cc2)nn1,5.1,0.2,4%,.,0.63,.,?
O=C(NCCCn1ccnc1)/C(=C\c1ccc(Br)cc1)NC(=O)c1ccccc1F,0.1,-0.1,.,3.8,0.72,i,1.8
COc1cc(NC(=S)NCCCN(C)C)c(OC)cc1NC(=O)c1ccco1,4.7,7.4,11%,3.1,0.7,i,2.1
Cc1ccc(NC(=O)Cn2cccc2C2=NC(c3ccccc3)CO2)c(C)c1 (stereo unspecified),0.2,-0.1,-2%,.,0.67,.,-0.3
O=C(N/N=C/c1cc([N+](=O)[O-])ccc1Cl)c1ccc2nc[nH]c2c1,.,2.3,0%,.,.,.,-2.2
N=c1c2ccccc2nnn1-c1ccc(C(F)(F)F)cc1,5.8,0.8,.,0.2,0.73,.,?
O=C(NCc1cccs1)C1CCN(S(=O)(=O)c2ccc(Br)s2)CC1,3.3,-2.5,-3%&-1%,.,0.71,.,1.5
Nc1ncnc2c1ncn2[C@@H]1O[C@H](C(=O)N[C@@H](CO)Cc2ccccc2)[C@@H](O)[C@H]1O,.,2.8,.,-1.0,.,i,.
OC(COc1cc(Cl)c(Cl)cc1Cl)CN1CCN(c2ncccn2)CC1 (stereo unspecified),0.6,-1.0,14%,.,0.6,.,-0.3
Clc1ccc(-c2cc(-c3ccccn3)on2)c(Cl)c1,3.7,-1.4,-3%,.,0.64,i,2.9
COc1cc(CN2CCCC(CCC(=O)NCc3ccc(C)o3)C2)cc2c1OCO2 (stereo unspecified),0.7,-0.5,-8%,3.3,0.7,i,-1.9
CCOC(=O)N1CCN(c2c(NCC3CCCO3)c(=O)c2=O)CC1 (stereo unspecified),2.3,-0.9,-2%,-4.2,0.68,i,-3.9
COc1ccc(CNC(=O)CC2C[C@H](C(=O)N3CCCCC3)[C@@]3(C)c4[nH]c5ccccc5c4CCN3C2=O)cc1OC (stereo partly specified),0.1,2.6,-7%,-0.9,0.68,i,.
COc1ccc(COc2ccc3ccc(=O)oc3c2)cc1,-10,-0.1,-1%,0.2,0.65,i,-2.1
O=C(CC(c1ccccc1)c1cc(Br)ccc1O)NCCCN1CCOCC1 (stereo unspecified),5.2,1.5,.,2.1,0.67,i,-0.1
SMILES,UCH37 DUB inh,HNF4A DNA FP,Vif A3G,AF4-AF9 inh,E coli growth,FGF22 binding,RanGTP-Imp inh
CC1C2CC(CC1(C)C)N(C(=O)Nc1ccc3nccnc3c1)C2 (stereo unspecified),-60,-1.9,4%,.,0.77,.,3.0
Cc1ccc(CNC(=O)CCC(=O)c2cccs2)cc1,2.8,3.5,2%,.,0.74,.,-1.4
COc1ccc(C(=O)NCc2ccc3c(c2)OCO3)cc1S(=O)(=O)N(C)Cc1ccccc1,-0.3,-0.8,-2%,.,0.69,.,-0.2
O=C(Nc1ccc(S(=O)(=O)NC2=NCCCCC2)cc1)c1ccc(Cl)c([N+](=O)[O-])c1,4.8,-0.4,.,4.0,0.69,i,.
Cc1c(NC(=O)C2CCCCC2)cc(C(=O)N2CCOCC2)cc1[N+](=O)[O-],4.2,1.9,2%,1.9,0.71,i,-2.4
CC(/C=C1\N=C(SCc2ccccc2)SC1=O)=C\c1ccccc1,5.7,4.9,.,.,0.66,.,-1.6
O=C(Oc1ccc(Cl)cc1)c1ccc2nccnc2c1,-0.1,0.8,-17%,.,0.69,.,0.6
O=C(Nc1ccc(N2CCCC2)cc1)c1ccc(Br)o1,3.9,7.9,?,.,0.69,.,-5.3
CCC1=Nc2cc(C(=O)NCCCN3CCOCC3)ccc2Sc2ccccc21,0.2,2.4,.,6.5,0.67,i,-3.0
CC(C)n1c2ccccc2c2nnc(SCC(=O)OCN3C(=O)c4ccccc4C3=O)nc21,0.6,4.7,-5%,.,0.7,.,0.0
O=C(CN1C(=O)c2ccccc2S1(=O)=O)Nc1ncc([N+](=O)[O-])s1,7.1,-0.5,2%,0.0,0.6,i,-4.4
O=C(COC(=O)/C=C/c1cccc(C(F)(F)F)c1)NC1CCCCCC1,1.6,4.0,6%,-29,0.69,i,.
CC1CCC(NC(=O)CCS(=O)(=O)c2ccc3c(c2)NC(=O)CO3)CC1 (stereo unspecified),0.5,0.2,-9%,-2.1,0.69,i,0.6
Cc1ccc(C)c(C(=O)CSc2nnc(C)s2)c1,1.8,-2.2,0%,-1.5,0.65,i,-3.1
CC(=O)Nc1nc(C)c(CCC2OCCO2)c(=O)[nH]1,3.8,2.0,10%,0.4,0.68,i,-5.4
COc1cc(CNS(=O)(=O)c2ccc3c(c2)CC(C)N3C(=O)C2CCC2)cc(OC)c1OC (stereo unspecified),.,-1.6,.,1.2,.,i,8.3

# An excerpt of these results, with two lines to a compound:
# Below each compound – UCH37 DUB inh | HNF4A DNA FP | Vif A3G | AF4-AF9 inh | E coli growth | FGF22 binding | RanGTP-Imp inh
> O=C(Oc1ccc(Cl)cc1)c1ccc2nccnc2c1
 : -0.1 | 0.8 | -17% | . | 0.69 | . | 0.6
> O=C(Nc1ccc(N2CCCC2)cc1)c1ccc(Br)o1
 : 3.9 | 7.9 | ? | . | 0.69 | . | -5.3

# Profiles from above.
# `CC1CCC(NC(=O)CCS(=O)(=O)c2ccc3c(c2)NC(=O)CO3)CC1` (stereo unspecified) is listed as UCH37 DUB inh: 0.5; HNF4A DNA FP: 0.2; Vif A3G: -9%; AF4-AF9 inh: -2.1; E coli growth: 0.69; FGF22 binding: i; RanGTP-Imp inh: 0.6
# `CC1C2CC(CC1(C)C)N(C(=O)Nc1ccc3nccnc3c1)C2` (stereo unspecified) is listed as UCH37 DUB inh: -60; HNF4A DNA FP: -1.9; Vif A3G: 4%; AF4-AF9 inh: .; E coli growth: 0.77; FGF22 binding: .; RanGTP-Imp inh: 3.0
